Compound activity from PubChem BioAssay.
Biofilm kill mix: mixture kills Candida albicans biofilm cells; C. albicans biofilm persisters + clotrimazole, fluorescence viability; primary screen in compound mixtures of four per well; inhibition, % at 7.6 µM; 120,000 compounds, 0.02% hits; AID 1242;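 active means inhibition above 30.3% in the primary screen of four-compound pools, then above 30% when the compound was retested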;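 further: compounds exposed to preformed 24 h biofilms for 48 h; the number belongs to the whole pool; some results filed as inactive read as strong as hits; inactives centre near 12; 0% = biofilm with clotrimazole alone and 100% = kill control; retested singly at about 60 µM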
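System: C. albicans CAF4-2 wild-type biofilms; Medium: RPMI/MOPS medium, pH 7.0; Reagent: Clotrimazole, 50 µg/mL; Times: biofilm formation 24 h, compound exposure 48 h, 37 °C; Detection: 2-h Alamar Blue fluorescence, 535/590 nm excitation/emission; Evaluation: percent inhibition of biofilm viability.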
* = called active by the depositor.

smiles	Biofilm kill mix
CCOC(=O)C(=O)Nc1sc(C(=O)N(CC)CC)c(C)c1C#N	21
O=C(CN1CCN(c2ncccn2)CC1)N1CCc2ccccc21	20
COc1ccc(/C=N/NC(=O)CCn2nc(C)cc2C)cc1O	24
CC(C)C(=O)Nc1ccc2oc(-c3cc(F)c(F)cc3Cl)nc2c1	8
C/C(=N\NC(=O)C1CC1)c1cccnc1	5
S=C1c2ccccc2CN1c1ccccc1	15
O=C(COc1cccc2ccccc12)NNC(=O)c1cnccn1	14
CC(=O)Nc1cccc2c1C(=O)N(c1ccccc1C)C2=O	16
Cc1ccc(NC(=O)c2sc3nc(N)c(C#N)cc3c2N)cc1	12
NS(=O)(=O)c1ccc(CNC(=O)/C=C/c2ccccc2[N+](=O)[O-])cc1	17
CN(Cc1cccnc1)Cc1cn(C)nc1-c1ccc(Oc2ccccc2)cc1	12
COc1cccc(CC2(CO)CCN(Cc3cccn3-c3cccnc3)CC2)c1	54
CCc1nc(C)cn1S(=O)(=O)c1cc([N+](=O)[O-])ccc1Cl	4
CCOC(=O)c1nn(-c2ccc(OCC)cc2)c2nc(-c3cccc(OC)c3)c(C#N)c(=O)n12	11
C=CCSc1nc(C)c(Cc2cccc3ccccc23)c(=O)[nH]1	19
Cc1ccccc1NC(=S)N(CCCN1CCCCC1)Cc1ccco1	15
O=C(CC1CCCCC1)NCc1nc(-c2ccccc2)no1	17
CC(C)CC(=O)NC(=S)Nc1nc(-c2ccc(Cl)cc2)cs1	12
O=C(NCc1cccnc1)c1nc(-c2cccs2)no1	4
COC(CNC(=O)c1ccc(N2CCC3(CC2)OCCO3)c([N+](=O)[O-])c1)OC	12
Cc1ccc(NC(=O)CCn2c(=S)oc3ccccc32)cc1	15
CC(C)N1CCN(Cc2cc(F)ccc2-n2cccn2)CC1CCO (centres undefined)	9
O=C(NO)c1ccccc1C(F)(F)F	-17
OC1CCN(Cc2cccc3ccccc23)CC1	29
CCCC(=O)Nc1nc(C)c(C(C)=O)s1	-7
Cc1cccn2c(CN3CCSCC3)c(C(=O)N3CCOCC3)nc12	13
CCCn1c(N)c(CC)c(=O)[nH]c1=O	5
CCOC(=O)c1c(NC(=O)COC(=O)Cn2c(C)nc3ccccc32)sc2c1CCCC2	17
CCOC(=O)C1(CCOC)CCN(Cc2ccc(C3CCCCO3)s2)CC1 (centres undefined)	-9
CCOc1ncccc1C(=O)N1CCCSC1=Nc1ccccc1OC	13
O=C(CSc1nnc(CNc2ccc(F)cc2)n1-c1ccccc1)N1CCOCC1	9
Cn1cc(CN2CCN(CCc3ccccc3)C(CCO)C2)cn1 (centres undefined)	15
CC(C)CC(NS(=O)(=O)c1ccc2[nH]c(=O)c(=O)[nH]c2c1)C(=O)O (centres undefined)	13
CC(C)NC(=O)/C(=C/c1cn(-c2ccccc2)nc1-c1cccc([N+](=O)[O-])c1)NC(=O)c1ccccc1	9
CCOc1ccc(C(=O)c2cc3ccc(O)cc3oc2=O)cc1	2
C=CCn1c(C(C)NC(=O)c2cccc(C)c2)n[nH]c1=S (centres undefined)	18
N=C(N)SCP(=O)(c1ccccc1)c1ccccc1	18
COc1ccccc1Nc1ncc(C(=O)Nc2ccc(OC)c(OC)c2)c2ccccc12	14
CC(=O)Nc1ccc(S(=O)(=O)Nc2ccc3c(c2)OCCO3)cc1Cl	16
O=C(O)C1CCN(C(=O)CSc2nc3ccccc3s2)CC1	-2

A different layout for 2 compounds above.
> CCOC(=O)c1c(NC(=O)COC(=O)Cn2c(C)nc3ccccc32)sc2c1CCCC2
  Biofilm kill mix: 17
> CCOC(=O)C1(CCOC)CCN(Cc2ccc(C3CCCCO3)s2)CC1 (centres undefined)
  Biofilm kill mix: -9

The list goes on:
smiles	Biofilm kill mix
Cc1nn(C(=O)c2cccnc2)c(C)c1Sc1ccccc1	11
CC(/C=N/n1c(-c2cc(C)[nH]n2)n[nH]c1=S)=C\c1ccco1	11
CCN(CC)C(=O)c1[nH]cnc1C(=O)N[C@@H](CC(C)C)C(=O)OCc1ccccc1	19
COc1ccc2nc(SCc3cccc(C)c3)nc(C)c2c1	18
COc1cc(C(=O)c2c(C)c(CCC#N)n3ccccc23)cc(OC)c1OC	17
COc1ccccc1N1CCN(S(=O)(=O)c2ccc3nc(-c4ccccc4)[nH]c3c2)CC1	-4
Cc1cccc(CSc2nc(N)c(C#N)c(-c3cccs3)c2C#N)c1	15
CCC(C)n1c(OC)nc2c1c(=O)n(C)c(=O)n2C (centres undefined)	10
O=C(N=Nc1c(O)[nH]c2ccc([N+](=O)[O-])cc12)c1ccccc1[N+](=O)[O-]	16
C#CCOCCOCCOCCNc1nc(N2CCN(C(=O)[C@H]([C@@H](C)CC)n3cc([C@@H](N)Cc4ccc(O)cc4)nn3)CC2)nc(N2CCN(C(=O)[C@H](CCCCN)n3cc([C@@H](N)CO)nn3)CC2)n1	18
CC1(C)CC(NC(=O)c2ccncc2)CC(C)(C)N1O	9
NS(=O)(=O)c1ccc(CCNC(=O)CSc2nc3ccsc3c(=O)n2C2CC2)cc1	8
O=[N+]([O-])c1ccc(C[n+]2cc(-c3ccccc3)n3c2CCCCC3)cc1	13
O=C(COC(=O)c1ccccc1O)Nc1ncc(Cl)cc1Cl	22
C#CCOCCOCCOCCNc1nc(N2CCN(C(=O)Cn3cc(CCCN=C(N)N)nn3)CC2)nc(N2CCN(C(=O)Cn3cc(CCCN=C(N)N)nn3)CC2)n1	0
CN(Cc1ccccc1)C(NC(=O)c1ccco1)C(Cl)(Cl)Cl (centres undefined)	3
OCCC1CN(Cc2cn[nH]c2C2CCCCC2)CCN1C1CCCC1 (centres undefined)	24
O=C(O)c1cc(Cl)c(Cl)cc1C(=O)Nc1cccc2cccnc12	15
CCOC(=O)N1CCN(c2cc(=O)n(-c3ccc(C)cc3)c(=O)[nH]2)CC1	25
CCC(C)n1c(SCc2ccc([N+](=O)[O-])cc2)nc2ccsc2c1=O (centres undefined)	5

An excerpt of these results, as labelled records.
compound: COc1ccc2nc(SCc3cccc(C)c3)nc(C)c2c1
- Biofilm kill mix: 18

compound: COc1cc(C(=O)c2c(C)c(CCC#N)n3ccccc23)cc(OC)c1OC
- Biofilm kill mix: 17

compound: COc1ccccc1N1CCN(S(=O)(=O)c2ccc3nc(-c4ccccc4)[nH]c3c2)CC1
- Biofilm kill mix: -4

compound: Cc1cccc(CSc2nc(N)c(C#N)c(-c3cccs3)c2C#N)c1
- Biofilm kill mix: 15

More results.
smiles	Biofilm kill mix
Cc1ccc(C(=O)NC(C#N)=C(Cl)Cl)cc1	8
CCOc1ccc(N(CC(=O)NCCC2=CCCCC2)S(=O)(=O)c2ccccc2)cc1	1
COc1ccc(OC)c(-c2cc(C(=O)Nc3ccc(F)cc3F)no2)c1	2
O=C(Cc1ccccc1[N+](=O)[O-])Nc1ccc2c(c1)OCO2	5
CN1CCC(N(C)C(=O)NC2CCCCC2)CC1	14
COc1ccc2c(c1OC)C(=O)OC2Nc1ccc(S(=O)(=O)N=C(N)N)cc1 (centres undefined)	11
CNC(=S)SCCOc1ccc(C)cc1	4
C=CSc1sc(Cl)c(N(C)C)c1[N+](=O)[O-]	9
COc1ccc(N2CCN(C(CNC(C)=O)c3ccco3)CC2)cc1 (centres undefined)	12
CCOC(=O)C1(Cc2ccccc2)CCCN(Cc2cccc(C(C)=O)c2)C1 (centres undefined)	0
COCCSc1ccccc1C(=O)N1CCN(Cc2ccccc2)CC1	9
O=C1CCN(S(=O)(=O)c2ccccc2)CCN1CCOCc1ccc(Cl)cc1	25
CCCC(=O)NC(=S)Nc1sc2c(c1C(N)=O)CCC2	18
CC(=O)N/C(=C/c1ccccc1)C(=O)N1CCCCC1	13
COc1ccc(/C=N/Nc2ccccc2C(=O)O)cc1Cn1cc([N+](=O)[O-])cn1	24
O=C(/C=C/c1ccc2c(c1)OCO2)N1CCN(c2ccccc2F)CC1	-11
COc1ccc(CNC(=O)C2CC(c3ccccc3C(F)(F)F)=NO2)cc1 (centres undefined)	21
Cc1ccc(CN2CCN(CC(=O)N/N=C/c3c[nH]c4ccccc34)CC2)cc1	9
Cc1sc(NC(=O)CSc2nc(O)cc(=O)[nH]2)nc1-c1ccccc1	6
COc1ccc(C2CC(c3ccccc3)=NN2c2ccccc2)c(C(=O)O)c1OC (centres undefined)	5
COc1ccc(OC)c(/C=C/C(=O)NCCc2nc3ccccc3[nH]2)c1	6
CCOC(=O)c1cnn(-c2ccc(NS(=O)(=O)c3ccc(Cl)cc3)cc2)c1C(F)(F)F	15
CCCc1cc(=O)[nH]c(SCC(=O)Nc2ncc(S(=O)(=O)c3ccc([N+](=O)[O-])cc3)s2)n1	18
Cc1cc(NCCCN(C)C)n2nc(-c3cccs3)cc2n1	11
Cc1ccc(-c2nn(-c3ccccc3)cc2/C=C/C(=O)Nc2cccc(S(N)(=O)=O)c2)cc1	1
Cn1nc(C(F)(F)F)c(-c2ccccc2)c1N	13
COc1ccccc1CCC(=O)OCC(=O)Nc1ccc(S(N)(=O)=O)cc1	6
Cc1ccc(S(=O)(=O)NNC(=O)C2COc3ccccc3O2)cc1 (centres undefined)	17
Brc1ccc(-c2cn3c(n2)SCC3)cc1	16
O=C(Cn1c(=O)oc2ccccc21)Nc1ccccc1N1CCOCC1	5
COCCn1c(C)cc(C(=O)COC(=O)c2ccc(Br)o2)c1C	5
CCN1CCC2(CC1)N=C(c1ccc(F)cc1)C(=S)N2C(=O)c1ccc(C(C)(C)C)cc1	5
Fc1ccc(C2=CC(c3ccc(Br)o3)n3ncnc3N2)cc1 (centres undefined)	9
Cc1nc2c(C#N)cnn2c2c1CCN(Cc1ccccc1)N2C	9
Cc1cccc(N(C(=O)Cc2cccs2)C(C(=O)NCc2ccco2)c2ccncc2)c1 (centres undefined)	13
Oc1c(Br)cccc1/C=N/Nc1c(F)c(F)c(F)c(F)c1F	3
Cc1ccc(-c2cc(C(=O)Nc3ccc(S(=O)(=O)N4CC(C)OC(C)C4)cc3)[nH]n2)c(O)c1 (centres undefined)	29
COc1ccc(CCN2C(=O)CSC2=Nc2ccc(C(C)C)cc2)cc1OC	6
Cc1nnc(N2C(=O)C(O)=C(C(=O)c3ccco3)C2c2ccc(C(C)(C)C)cc2)s1 (centres undefined)	5
CC(C)Cc1nn2c(N)c(/C=C3\C=Nc4ccccc43)c(=O)nc2s1	-7
Cc1onc(-c2ccccc2)c1NC(=O)N(Cc1ccccc1)C(C)C	19
O=C(CSc1nc2ccccc2c(=O)[nH]1)Nc1ccc(C(=O)O)cc1	-5
Cc1cccc(C(=O)N2CCN(c3ncnc4c3cnn4-c3ccccc3)CC2)c1	17
Cc1cccc(N2C(=O)c3cccc(Oc4ccc(Cl)cc4)c3C2=O)c1	19
CC1CCCN(S(=O)(=O)c2ccccc2[N+](=O)[O-])C1 (centres undefined)	13
COC(=O)c1ccc(NC(=O)c2c(C(=O)Nc3ccccc3)sc3nc(C)cc(=O)n23)cc1	-2
NNC(=O)c1[nH]c2ccc(Br)cc2c1-c1ccccc1	12
C=CCn1c(SCC(=O)Nc2cccnc2Cl)nnc1-c1ccc(C(C)(C)C)cc1	6
CC(Nc1nc(-c2ccc3c(c2)NC(=O)CO3)cs1)c1ccccc1 (centres undefined)	-2
c1csc(-c2nc3ccccn3c2NC2CCCCC2)c1	17
CCc1ccccc1Cn1c(=O)oc2cccnc21	17
COc1cc(OC)cc(C(=O)Nc2nc3ccc(S(C)(=O)=O)cc3s2)c1	5
Cc1ccc(Nc2nc(N)c([N+](=O)[O-])c(N3CCCC(C)C3)n2)cc1C (centres undefined)	21
COc1ccc(-c2nc(N)n(C(=O)c3ccccc3)n2)cc1	-1
O=C(Nc1ccc(Cl)c(Cl)c1)Nc1ccc(N2CCCC2)c(S(=O)(=O)Nc2ccccc2Cl)c1	0
C#CCOCCOCCOCCNc1nc(N2CCN(C(=O)[C@H](CCC(=O)O)n3cc(C(N)Cc4ccc(O)cc4)nn3)CC2)nc(N2CCN(C(=O)[C@H](Cc3ccc(O)cc3)n3cc(C(N)CC(C)C)nn3)CC2)n1 (some centres undefined)	-1
S=c1[nH]nc(-c2cc(-c3ccccc3)n[nH]2)n1/N=C/c1cccs1	16
Cc1cccc(NC(=O)COc2ccc(/C=N\n3cnnc3)cc2)c1	10
CCOC(=O)Cc1csc(N/N=C/c2ccc(Cl)cc2)n1	10
CCOC(=O)C1=C(Nc2ccccc2)CC(C)(O)C(C(=O)OCC)C1c1ccc(Cl)cc1 (centres undefined)	10

Entries above with a tert-butyl group:
smiles	Biofilm kill mix
CCN1CCC2(CC1)N=C(c1ccc(F)cc1)C(=S)N2C(=O)c1ccc(C(C)(C)C)cc1	5
Cc1nnc(N2C(=O)C(O)=C(C(=O)c3ccco3)C2c2ccc(C(C)(C)C)cc2)s1 (centres undefined)	5
C=CCn1c(SCC(=O)Nc2cccnc2Cl)nnc1-c1ccc(C(C)(C)C)cc1	6

A portion of the library; count on the stated rates, not on these rows.
